# c-Myc SMM: binders of human c-Myc, primary screen, biochemical, small molecule microarray, anti-His fluorescence. calls only. Myc proto-oncogene protein (Homo sapiens), P01106. 17,000 tested, 1.5% active. His-c-Myc binding;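 active = spot fluorescence over background with P-value below 7% in all four replicate spots, showing protein binding; compounds were printed on slides so no solution concentration is given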;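 note: score is binary with 100 for all four spots passing and 0 otherwise; about 2 pmol printed per array spot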
# STAT3 SMM: STAT3 binders, primary screen, biochemical, small molecule microarray, single point, set 2; His-STAT3 binding, anti-His fluorescence; calls only; 17,000 tested, 0.2% active; AID 624138, 2012;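 active = compounds whose four printed spots each show fluorescence over background unusually high for their array block, chance value under 7%; compounds were printed on slides so no solution concentration is given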;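 note: about 2 pmol printed per array spot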
# Target sequence (P40763 whole entry, looked up): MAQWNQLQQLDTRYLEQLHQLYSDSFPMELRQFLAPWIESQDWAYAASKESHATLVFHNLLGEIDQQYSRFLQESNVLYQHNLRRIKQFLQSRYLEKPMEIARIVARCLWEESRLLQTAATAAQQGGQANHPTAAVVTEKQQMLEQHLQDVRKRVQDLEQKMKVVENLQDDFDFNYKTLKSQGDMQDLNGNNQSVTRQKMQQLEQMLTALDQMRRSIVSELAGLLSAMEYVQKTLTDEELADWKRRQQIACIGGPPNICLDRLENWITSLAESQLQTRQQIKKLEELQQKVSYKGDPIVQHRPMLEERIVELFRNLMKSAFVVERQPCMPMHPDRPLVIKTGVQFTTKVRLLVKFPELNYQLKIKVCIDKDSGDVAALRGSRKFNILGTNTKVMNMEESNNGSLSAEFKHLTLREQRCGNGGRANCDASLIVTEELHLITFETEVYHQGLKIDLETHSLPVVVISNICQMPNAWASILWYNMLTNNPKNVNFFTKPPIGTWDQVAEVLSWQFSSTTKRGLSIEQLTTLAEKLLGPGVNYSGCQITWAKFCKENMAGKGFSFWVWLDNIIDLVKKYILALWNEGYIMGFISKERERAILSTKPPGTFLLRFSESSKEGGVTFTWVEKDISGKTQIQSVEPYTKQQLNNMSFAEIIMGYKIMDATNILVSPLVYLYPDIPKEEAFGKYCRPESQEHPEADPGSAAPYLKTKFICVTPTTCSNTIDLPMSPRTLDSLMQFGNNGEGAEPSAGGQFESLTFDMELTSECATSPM
# ID4 binder: binders of human ID4 protein, primary screen, biochemical, small molecule microarray, single point; DNA-binding protein inhibitor ID-4 (Homo sapiens), P47928; Flag-ID4 binding, fluorescence F/B; calls only; 31,000 tested, 1.2% active; AID 624137, 2012;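 active = spot signal over background at p below 0.07 in all four prints; compounds were printed on slides so no solution concentration is given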;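 note: a binder raises fluorescence above local background on the spot; about 2 pmol printed per array spot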
# Target sequence (P47928 whole entry, looked up): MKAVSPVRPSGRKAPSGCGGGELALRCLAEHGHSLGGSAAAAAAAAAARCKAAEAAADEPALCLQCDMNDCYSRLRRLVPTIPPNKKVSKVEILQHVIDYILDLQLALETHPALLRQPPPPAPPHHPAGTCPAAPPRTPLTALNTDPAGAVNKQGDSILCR
# p53 mut binder: binders of human mutant p53, primary screen, biochemical, small molecule microarray, anti-GST fluorescence; calls only; 17,000 tested, 0.4% active; small molecule microarray binding;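 active = compounds whose four printed spots each glow above background more than chance allows, each with a p-value under 7%; compounds were printed on slides so no solution concentration is given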;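 note: about 2 pmol printed per array spot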
# Calls only; i = inactive; · = no result given; + = active, no number.
SMILES,c-Myc SMM,STAT3 SMM,ID4 binder,p53 mut binder
C[C@@H]1CN([C@@H](C)CO)C(=O)Cc2cc(NC(=O)Nc3ccc4c(c3)OCO4)ccc2O[C@@H]1CN(C)C(=O)Nc1ccc2c(c1)OCO2,i,i,i,i
CN(Cc1nc(-c2ccccc2)no1)S(=O)(=O)c1ccccc1,i,i,i,i
CC(C)(C)[C@@H]1C=C(C(=O)N2CCCCCCC2)O[C@H](OCCCCO)C1,i,i,i,i
C[C@@H]1CN([C@@H](C)CO)C(=O)CCCn2cc(nn2)CO[C@H]1CN(C)C(=O)Oc1ccccc1,i,i,·,i
O=C(O)C1=C[C@H](c2csc3ccccc23)C[C@H](OCc2ccc(CO)cc2)O1,i,i,i,i
NCCNc1ccc([N+](=O)[O-])c(NCCO)c1,i,i,+,i
Cc1noc(C)c1NC(=O)N(C)C[C@@H]1Oc2ccc(NC(=O)CCN3CCOCC3)cc2C(=O)N([C@H](C)CO)C[C@@H]1C,i,i,·,i
C[C@H](CO)N1C[C@H](C)[C@@H](CN(C)C(=O)Nc2ccc(C(F)(F)F)cc2)OCCCC[C@H](C)Oc2ccc(N(C)C)cc2C1=O,i,i,·,i
Cc1ccc(C(=O)CSc2nsc3sc(C(=O)c4ccc(C)cc4)c(N)c23)cc1,i,i,i,i
Cc1noc(C)c1S(=O)(=O)Nc1ccc2c(c1)C(=O)N([C@@H](C)CO)C[C@H](C)[C@@H](CN(C)C(=O)NC1CCCCC1)O2,i,i,i,i
C[C@H](CO)N1C[C@H](C)[C@H](CN(C)S(=O)(=O)c2ccc(Cl)cc2)Oc2ccc(NC(=O)NC3CCCCC3)cc2C1=O,i,i,i,i
Cc1cc(C)c(NC(=O)CCCC(=O)O)c(C)c1,i,i,i,i
C[C@@H]1CN([C@H](C)CO)C(=O)Cc2cc(NC(=O)Nc3ccccc3)ccc2O[C@H]1CN(C)CC1CC1,i,i,i,i
O=C(COc1ccccc1C(=O)Nc1cccc(Cl)c1Cl)Nc1ccc(N2CCOCC2)c(Cl)c1,i,i,i,i
C[C@H]1CN([C@@H](C)CO)C(=O)c2cc(NS(=O)(=O)c3ccccc3)ccc2O[C@H]1CN(C)C,i,i,i,i
C[C@H](CO)N1C[C@H](C)[C@H](CN(C)CC2CCCCC2)Oc2ccc(NC(=O)Nc3cccc4ccccc34)cc2C1=O,i,i,·,i
Cc1ccc(S(=O)(=O)Nc2ccc3c(c2)C(=O)N([C@@H](C)CO)C[C@@H](C)[C@@H](CN(C)Cc2ccc(C(=O)O)cc2)OCCCC[C@@H](C)O3)cc1,i,i,·,i
CC(CCC(=O)Nc1ccccc1)C(=O)O (stereo unspecified),i,i,i,i
COc1ccc(S(=O)(=O)Nc2ccc3c(c2)C(=O)N([C@@H](C)CO)C[C@@H](C)[C@@H](CN(C)S(=O)(=O)c2ccc(OC)cc2)O3)cc1,i,i,i,i
CC(C)NC(=O)Nc1ccc2c(c1)C(=O)N([C@H](C)CO)C[C@H](C)[C@@H](CN(C)C(=O)Cc1ccccc1)OCCCC[C@@H](C)O2,i,i,i,i
CC(C)NC(=O)Nc1ccc2c(c1)C(=O)N([C@H](C)CO)C[C@@H](C)[C@H](CN(C)C(=O)CCCN(C)C)OCCCC[C@@H](C)O2,i,i,i,i
Cc1noc(C)c1S(=O)(=O)N(C)C[C@@H]1OCCCC[C@H](C)Oc2ccc(N(C)C)cc2C(=O)N([C@H](C)CO)C[C@@H]1C,i,i,i,i
COc1cc(-n2nnnc2SCC(=O)Nc2cccc(Cl)c2Cl)c(OC)cc1Cl,i,i,i,i
CCc1ccc(-c2cc(C(=O)Nc3ccc(S(=O)(=O)NC(C)=O)cc3)c3ccccc3n2)cc1,i,i,i,i
Cc1ccc(S(=O)(=O)Nc2ccc3c(c2)C(=O)N([C@@H](C)CO)C[C@H](C)[C@@H](CN(C)Cc2ccc4c(c2)OCO4)OCCCC[C@H](C)O3)cc1,i,i,·,i
Cc1ccc(S[C@]2(C(=O)NCCCN(C)C)CC(=O)N(C3CCCCC3)[C@@H]2c2ccc(CO)cc2I)cc1,i,i,·,i
C[C@@H]1CN([C@H](C)CO)C(=O)c2cccc(NC(=O)c3ccc(-c4nccs4)cc3)c2O[C@@H]1CN(C)C(=O)NC1CCCCC1,i,i,i,i
Cc1ccc(CCN=c2c([N+](=O)[O-])nn(-c3ccc4c(c3)OCCO4)n2O)cc1,i,i,i,i
C[C@H]1CN([C@@H](C)CO)C(=O)CCCn2cc(nn2)CO[C@H]1CN(C)Cc1ccc(C(F)(F)F)cc1,i,i,i,i
C[C@@H]1CN([C@H](C)CO)C(=O)Cc2cc(NC(=O)NC3CCCCC3)ccc2O[C@H]1CN(C)Cc1ccc(C(=O)O)cc1,i,i,i,i
C=C(C(=O)O[C@@H]1O[C@H](CO)[C@@H](O)[C@H](O)[C@H]1O)[C@@H]1CC[C@@]2(C)C[C@H](O)C[C@@](C)(O)C2C1 (stereo partly specified),i,i,·,i
CCCC(O)C#Cc1cnc2c(c1)C(=O)N([C@H](C)CO)C[C@H](C)[C@H](CN(C)Cc1ccccc1)O2 (stereo partly specified),i,i,i,i
O=C(NCc1ccccn1)C1CC(c2ccc(Cl)c(Cl)c2)=NO1 (stereo unspecified),i,i,i,i
O=C(NS(=O)(=O)c1ccc(NC(=O)C2CCCO2)cc1)c1ccccc1 (stereo unspecified),i,i,i,i
C[C@@H]1CN([C@H](C)CO)C(=O)c2cccc(NC(=O)NC3CCCCC3)c2O[C@H]1CN(C)Cc1ccncc1,i,i,i,i
Cc1ccc(-c2cc(C(=O)NCCCN3CCOCC3)c3cc(Br)ccc3n2)cc1,i,i,i,i
Cc1noc(C)c1S(=O)(=O)N(C)C[C@H]1Oc2ccc(NS(=O)(=O)c3cn(C)cn3)cc2C(=O)N([C@@H](C)CO)C[C@H]1C,i,i,i,i
C[C@@H]1CCCCO[C@@H](CN(C)Cc2ccccc2)[C@@H](C)CN([C@@H](C)CO)C(=O)c2cc(NC(=O)Nc3ccc4c(c3)OCO4)ccc2O1,i,i,i,i
C[C@H]1CN([C@@H](C)CO)C(=O)c2cccc(NC(=O)c3cnccn3)c2O[C@H]1CN(C)C(=O)NC1CCCCC1,i,i,i,i
COC(=O)c1sc2nc(-c3ccccc3)nc(Nc3nc(C)cc(C)n3)c2c1C,i,i,i,i
O=C(O)c1ccc(Cl)c(S(=O)(=O)N2CCCC2C(=O)O)c1 (stereo unspecified),i,i,i,i
COc1cc(O)c(C(=O)c2c(C)cc(O)cc2OC)c(O)c1,i,i,·,i
COc1ccc(CN(C)C[C@H]2Oc3c(NC(=O)Nc4c(C)noc4C)cccc3C(=O)N([C@H](C)CO)C[C@H]2C)cc1,i,i,i,i
C[C@H](CO)N1C[C@H](C)[C@H](CN(C)C(=O)NC2CCCCC2)Oc2c(NC(=O)c3nc4ccccc4s3)cccc2C1=O,i,i,i,i
O=C(Cc1cccc2ccccc12)Nc1ccc(O)cc1C(=O)O,i,i,i,i
C[C@H](CO)N1C[C@H](C)[C@H](CN(C)S(=O)(=O)c2ccccc2)Oc2ncccc2C1=O,i,i,i,i
CO/N=C(\C(=O)N[C@@H]1C(=O)N2C(C(=O)O)=C(COC(N)=O)CS[C@H]12)c1ccco1,i,i,i,i
C[C@@H]1CCCCO[C@@H](CN(C)C(=O)c2ccccc2)[C@@H](C)CN([C@H](C)CO)C(=O)c2cc(NS(=O)(=O)c3cn(C)cn3)ccc2O1,i,i,i,i
CC(C)Oc1ccccc1NC(=O)CSc1nnc(-c2ccccc2Cl)o1,i,i,i,i
C[C@@H]1CN([C@@H](C)CO)C(=O)c2cccc(NS(=O)(=O)c3ccc(Cl)cc3)c2O[C@@H]1CN(C)C,i,i,i,i

# Results in STAT3 SMM (7 entries from above):
SMILES,STAT3 SMM
CO/N=C(\C(=O)N[C@@H]1C(=O)N2C(C(=O)O)=C(COC(N)=O)CS[C@H]12)c1ccco1,i
C[C@@H]1CCCCO[C@@H](CN(C)C(=O)c2ccccc2)[C@@H](C)CN([C@H](C)CO)C(=O)c2cc(NS(=O)(=O)c3cn(C)cn3)ccc2O1,i
COc1ccc(CN(C)C[C@H]2Oc3c(NC(=O)Nc4c(C)noc4C)cccc3C(=O)N([C@H](C)CO)C[C@H]2C)cc1,i
COc1cc(O)c(C(=O)c2c(C)cc(O)cc2OC)c(O)c1,i
C[C@@H]1CN([C@@H](C)CO)C(=O)c2cccc(NS(=O)(=O)c3ccc(Cl)cc3)c2O[C@@H]1CN(C)C,i
O=C(O)c1ccc(Cl)c(S(=O)(=O)N2CCCC2C(=O)O)c1 (stereo unspecified),i
C[C@H](CO)N1C[C@H](C)[C@H](CN(C)S(=O)(=O)c2ccccc2)Oc2ncccc2C1=O,i

# Following part:
SMILES,c-Myc SMM,STAT3 SMM,ID4 binder,p53 mut binder
COc1ccc(NC(=O)c2c(-c3ccccc3)csc2NC(=O)CN2CCOCC2)cc1,i,i,i,i
C[C@@H]1CCCCO[C@H](CN(C)C(=O)C2CCCCC2)[C@@H](C)CN([C@@H](C)CO)C(=O)c2cc(NC(=O)Nc3ccc(F)cc3)ccc2O1,i,i,·,i
Cc1cccc(C)c1OCC(=O)Nc1cccc(NC(=O)c2ccco2)c1,i,i,i,i
COC(=O)c1ccccc1NC(=O)C(C)(C)Oc1ccc(Cl)cc1,i,i,i,i
COc1ccc(C(=O)Nc2sc3c(c2C(=O)NC2CCS(=O)(=O)C2)CCCC3)cc1OC (stereo unspecified),i,i,i,i
C[C@H](CO)N1C[C@H](C)[C@H](CN(C)Cc2ccc(C(=O)O)cc2)Oc2c(NS(=O)(=O)c3ccc(Cl)cc3)cccc2C1=O,i,i,i,i
COc1ccc(CN(C)C[C@@H]2Oc3ccc(NS(=O)(=O)c4ccc(OC)cc4)cc3C(=O)N([C@H](C)CO)C[C@H]2C)cc1,i,i,i,i
Cc1noc(C)c1S(=O)(=O)N(C)C[C@H]1Oc2ccc(NC(=O)C3CCCCC3)cc2CC(=O)N([C@H](C)CO)C[C@H]1C,i,i,i,i
CC(C)NC(=O)N(C)C[C@@H]1Oc2c(NC(=O)C3CC3)cccc2C(=O)N([C@@H](C)CO)C[C@H]1C,i,i,i,i
COc1ccc(S(=O)(=O)N(C)C[C@H]2Oc3c(NC(=O)NC4CCCCC4)cccc3C(=O)N([C@@H](C)CO)C[C@@H]2C)cc1,i,i,i,i

# Some of the entries above in a different format:
# Below each compound – c-Myc SMM	STAT3 SMM	ID4 binder	p53 mut binder
C[C@@H]1CCCCO[C@H](CN(C)C(=O)C2CCCCC2)[C@@H](C)CN([C@@H](C)CO)C(=O)c2cc(NC(=O)Nc3ccc(F)cc3)ccc2O1
    i	i	·	i
CC(C)NC(=O)N(C)C[C@@H]1Oc2c(NC(=O)C3CC3)cccc2C(=O)N([C@@H](C)CO)C[C@H]1C
    i	i	i	i

# The listing continues:
SMILES,c-Myc SMM,STAT3 SMM,ID4 binder,p53 mut binder
COC(=O)c1ccccc1NC(=O)C1=C(C)NC(=S)NC1c1ccc(OC2CCCC2)c(OC)c1 (stereo unspecified),i,i,i,i
C[C@@H]1CN([C@@H](C)CO)C(=O)Cc2cc(NC(=O)Nc3ccc(F)cc3)ccc2O[C@@H]1CN(C)S(=O)(=O)c1ccc(F)cc1,i,i,·,i
COc1ccc(NC(=O)Nc2ccc3c(c2)C(=O)N([C@@H](C)CO)C[C@H](C)[C@H](CN(C)S(=O)(=O)c2ccc(OC)cc2)O3)cc1,i,i,i,i
CCCC(O)C#Cc1cnc2c(c1)C(=O)N([C@H](C)CO)C[C@H](C)[C@H](CN(C)C(=O)Nc1ccccc1)O2 (stereo partly specified),i,i,i,i
O=C(NCCCN1CCOCC1)C(=O)NC1CC1,i,i,i,i
COc1ccc(C)cc1NC(=O)CN1C(=O)c2cccc3cccc1c23,i,i,i,i
Cc1ccc(S(=O)(=O)N(C)c2ccc(C(=O)Nc3cccnc3)cc2)cc1,i,i,i,i
C[C@@H]1CCCCO[C@@H](CN(C)S(C)(=O)=O)[C@H](C)CN([C@@H](C)CO)C(=O)c2cc(NC(=O)Nc3cccc4ccccc34)ccc2O1,i,i,·,i
C[C@H]1CN([C@@H](C)CO)C(=O)c2cccc(NC(=O)Nc3ccc(C(F)(F)F)cc3)c2O[C@@H]1CN(C)S(=O)(=O)c1cccs1,i,i,i,i
Cc1noc(C)c1S(=O)(=O)N(C)C[C@@H]1OCCCC[C@@H](C)Oc2ccc(NC(=O)C3CCCCC3)cc2C(=O)N([C@@H](C)CO)C[C@@H]1C,i,i,i,i
C[C@H](CO)N1C[C@H](C)[C@H](CN(C)S(=O)(=O)c2ccccc2)Oc2ccc(NC(=O)CCC(F)(F)F)cc2CC1=O,i,i,i,i
Cc1noc(C)c1S(=O)(=O)Nc1ccc2c(c1)CC(=O)N([C@H](C)CO)C[C@@H](C)[C@@H](CN(C)C(=O)Nc1ccccc1)O2,i,i,i,i
CC(C)(C)OC(=O)NCC12C=CC(O1)C1C(=O)N(Cc3ccccc3)C(=O)C12 (stereo unspecified),i,i,i,i
Cc1nc(SCC(=O)Nc2cccc(Cl)c2Cl)nc2c1CCCC2,i,i,i,i
CNC[C@@H]1Oc2ccc(NC(=O)c3ccncc3)cc2CC(=O)N([C@H](C)CO)C[C@@H]1C,i,i,i,i
COc1ccc(CN(C)C[C@H]2Oc3ccc(NC(=O)Cc4ccccc4)cc3CC(=O)N([C@H](C)CO)C[C@@H]2C)cc1,i,i,i,i
Cc1ccccc1Cn1cc(NC(=O)C2CC(c3ccc(Cl)cc3)=NO2)cn1 (stereo unspecified),i,i,i,i

# Screening data: PubChem BioAssay, Broad Institute

# This is a subset; count on the stated rates, not on these rows.
